Compound activity deposited in PubChem BioAssay by National Center for Advancing Translational Sciences (NCATS).
HTT prom inh – Primary qHTS for Identification of Small Molecule Inhibitors of Huntingtin Promoter Activity. Potency, µM (doses to about 57.5 µM), for the others: at the top dose activity change, negative = inhibition, actives largely listed as inhibitors. HEK293 HTT promoter firefly luciferase reporter (activity 0% = vehicle and -100% = no light), 24 h. AID 1508623, 2021. 48,000 compounds, 0.93% hits; active means well fitted inhibition curve with a large enough effect; inconclusive means small, poorly fitted or top-dose-only effect; inactive means no such curve, though single readings can be large or run the other way; further: nearly all actives have a fitted effect of over 50% in size
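HEK293 cells carrying firefly luciferase reporters were seeded at 2,500 per well in Opti-MEM and cultured for 24 h. They were then treated with compounds at up to 57.5 uM final for 24 h at 37 degrees C before Dual-Glo luminescence readout.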
PMP22 txn prim – Cell-based coincidence reporter assay to measure PMP22 gene transcription in S16 Pmp22-F2sN cells - Primary screen; S16 Pmp22-F2sN Schwann cells (luciferase reporters placed in the Pmp22 gene), FLuc/NLuc coincidence luminescence, 24 h; Potency, µM (top dose mostly 57.5 µM), for the others: at the highest dose activity change, negative = inhibition, hits mostly inhibitors; 43,000 compounds, 2% hits; active = clear falling dose curves in both reporters; inconclusive = both reporters move, but less clearly or upward; inactive = either reporter flat; the % is the NLuc reporter signal; further: on the % scale 0 is the no-effect control and ±100 the full control effect; some results filed as inactive show a strong effect at the top dose
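Rat S16 Pmp22-F2sN cells, 500-1,000/well in phenol red-free DMEM + 10% FBS, compound-treated 24 h (37C, 5% CO2). Luminescence: FLuc read, Stop&Glo added, NLuc read.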
* marks the source's active call; other numbers are inactive results; [ ] = dose if it differs, or a comment. Potency means the concentration at half of the fitted maximal effect.

`Cc1c(Cl)cccc1NC(=O)CN1C(=O)COc2ccc(S(=O)(=O)N3CCCCCC3)cc21` gave HTT prom inh -7% and PMP22 txn prim -2%.
For COc1ccc(C2Oc3nc(SC)nnc3-c3ccccc3N2C(C)=O)cc1 (centres undefined) the results were HTT prom inh -27% and PMP22 txn prim inconclusive.
For Cc1ccccc1OCc1ccc(-c2nc(C#N)c(N3CCC(C(N)=O)CC3)o2)o1 the results were HTT prom inh -29% and PMP22 txn prim -8%.
CC(=O)c1ccc(NC(=O)c2nc(-c3ccccc3)n(-c3ccccc3Cl)n2)cc1 was read as HTT prom inh -13% and PMP22 txn prim inconclusive.
Cc1nc(-c2ccc(Cl)cc2)sc1CCNC(=O)c1ccc(C(F)(F)F)cc1 was read as HTT prom inh -10% and PMP22 txn prim inconclusive.
For Cc1ccc(Cn2ccnc2SCC(=O)Nc2ccccc2C(F)(F)F)cc1 the results were HTT prom inh -4% and PMP22 txn prim -1%.
`CCc1cccc(NC(=O)Cn2ncc3c([nH]c4ccc(C)cc43)c2=O)c1` gave HTT prom inh 1% and PMP22 txn prim 7%.
Screening COc1ccccc1N1CCN(S(=O)(=O)c2c(C)sc3ncn(CC(=O)Nc4ccc(C)cc4Br)c(=O)c23)CC1 returned HTT prom inh -11% and PMP22 txn prim 10%.
`COc1cccc([C@@H](C)NCCCc2ccccc2Cl)c1` gave HTT prom inh 183%[activator].
CCc1cccc(NC(=O)Cn2c(=O)n(CC(=O)NCCc3ccccc3)c(=O)c3ccccc32)c1 was read as HTT prom inh -25% and PMP22 txn prim inconclusive.
COc1ccc(CNS(=O)(=O)c2ccc(F)c(C(=O)Nc3c(C)cc(C)cc3C)c2)cc1 was read as HTT prom inh -25% and PMP22 txn prim 11%.
For O=S(=O)(c1cccc(C(F)(F)F)c1)n1c(/C=C/c2ccccc2)nc2ccccc21 the results were HTT prom inh -7% and PMP22 txn prim inconclusive.
`Cc1nn(CC(=O)NCc2ccc(F)cc2)c2ccccc12` gave HTT prom inh 0% and PMP22 txn prim -2%.
For Cc1cc2oc(C(=O)Nc3ccc(S(=O)(=O)N4CCCCCC4)cc3)cc(=O)c2cc1C the results were HTT prom inh -17% and PMP22 txn prim 7%.
Screening COc1ccc(C)cc1Nc1c2c(nc3nc(-c4cccs4)nn13)CCCC2 returned HTT prom inh 0% and PMP22 txn prim -7%.
Screening O=C(Nc1ccccc1)Nc1nnc(SCC(=O)N2CCCCC2)s1 returned HTT prom inh -21% and PMP22 txn prim -8%.
Screening COc1ccc(NC(=O)CSC2=Nc3ccccc3C3=NC(CCC(=O)NCc4ccc(F)cc4)C(=O)N23)cc1Cl (centres undefined) returned HTT prom inh -18% and PMP22 txn prim inconclusive.
CCN(CC)CCOC(=O)c1ccc(NC(=O)c2nn(-c3ccc(C)cc3)c(=O)c3c2c2ccccc2n3C)cc1 was read as HTT prom inh -17% and PMP22 txn prim 5.1µM*.
C#CC(C)(CC)NC(=O)Cn1nnc(-c2ccc(OCc3c(F)cccc3Cl)cc2)n1 (centres undefined) was read as HTT prom inh inconclusive and PMP22 txn prim -111%.
Screening COc1ccc2cc3c(N)nn(C(=O)c4ccc(OC)c(OC)c4)c3nc2c1 returned HTT prom inh 7% and PMP22 txn prim -22%.
COc1cc(NC(=O)Cn2c(C)cc3ccccc3c2=O)cc(OC)c1OC was read as HTT prom inh -2% and PMP22 txn prim -30%.
`CC(=O)c1cccc(Nc2cc(C)nc3nc(Cc4ccccc4)nn23)c1` gave HTT prom inh -8% and PMP22 txn prim -27%.
`CCOC(=O)c1cc2c(=O)n3ccccc3nc2n(CC2CCCO2)c1=NC(=O)c1ccccc1OCC` (centres undefined) gave HTT prom inh -11% and PMP22 txn prim inconclusive.
For CCOC(=O)c1ccccc1NC(=O)Cn1ncc2c1-c1ccccc1OC2 the results were HTT prom inh -2% and PMP22 txn prim 4%.
For COc1ccc(/C=C/c2nc(C#N)c(N3CCN(c4ccccc4)CC3)o2)cc1OC the results were HTT prom inh -9% and PMP22 txn prim -32%.
For COc1cccc(C(=O)c2sc(Nc3ccc(F)c(Cl)c3)nc2N)c1 the results were HTT prom inh -21%[11.5 µM] and PMP22 txn prim -2%.
For COc1ccc(OC)c2sc(N(Cc3cccnc3)C(=O)c3ccco3)nc12 the results were HTT prom inh -30% and PMP22 txn prim inconclusive.
CCOc1ccc2c(c1)c(=O)c(S(=O)(=O)c1ccc(Cl)cc1)cn2Cc1ccccc1C was read as HTT prom inh -18% and PMP22 txn prim -8%.
Screening CCn1c(CN2CCOCC2)nc2cc(NC(=O)c3ccccc3[N+](=O)[O-])ccc21 returned HTT prom inh 7% and PMP22 txn prim -1%.
For CCN(C(=O)c1cnc2ccc(C)cn2c1=O)c1ccccc1 the results were HTT prom inh -8% and PMP22 txn prim 4%.
`Cc1cc(C)cc(NS(=O)(=O)c2ccc3c(c2)CCCN3C(=O)C2CCC2)c1` gave HTT prom inh inconclusive and PMP22 txn prim inconclusive.
COc1ccc2c(c1)CCc1c(C(=O)Nc3c(C)nn(Cc4ccc(Cl)cc4)c3C)noc1-2 was read as HTT prom inh inconclusive and PMP22 txn prim inconclusive.
Screening CCOc1cccc(C2c3[nH]c4ccccc4c3CCN2C(=O)c2ccccc2F)c1 (centres undefined) returned HTT prom inh inconclusive and PMP22 txn prim inconclusive.
CCc1ccc(-n2nnc(-c3nc(-c4ccccc4)no3)c2C)cc1 was read as HTT prom inh 54%[activator] and PMP22 txn prim -11%.
For Cc1cccc(C)c1NC(=O)c1oc2c(c1C)-c1nn(Cc3ccccc3)cc1CC2 the results were HTT prom inh inconclusive and PMP22 txn prim inconclusive.
`CCC(Sc1nc2cc3c(cc2c(=O)n1CCCC(=O)NCc1ccc(OC)cc1)OCO3)C(=O)NCCCOC` (centres undefined) gave HTT prom inh -4% and PMP22 txn prim 9%.
For COC(=O)c1ccc([C@H]2Nc3ccc(S(=O)(=O)Nc4cccc(C)c4)cc3[C@H]3C=CC[C@H]32)cc1 the results were HTT prom inh -26% and PMP22 txn prim -13%.
Screening CCOc1ccc(NC(=O)c2cnn3c2NC(C)=C(C(=O)Nc2ccc(Cl)cc2)C3c2ccc(OC)c(OC)c2)cc1 (centres undefined) returned HTT prom inh -10% and PMP22 txn prim inconclusive.
For Cc1ccc(N2C(=O)c3n[nH]c(C)c3C2c2ccc(C(C)C)cc2)cc1 (centres undefined) the results were HTT prom inh 5% and PMP22 txn prim -52%.
`COc1ccc(C(=O)NCC(c2ccc3c(c2)OCO3)N2CCN(C)CC2)cc1` (centres undefined) gave HTT prom inh -16% and PMP22 txn prim 13%.
Screening COc1ccc(C(=O)/C=C/c2cn(CC(O)CN3CCc4ccccc43)c3ccccc23)cc1OC (centres undefined) returned HTT prom inh inconclusive and PMP22 txn prim inconclusive.
`CCOC(=O)c1ccccc1NC(=O)n1ncc2cc(Cl)ccc21` gave HTT prom inh 2% and PMP22 txn prim 10%.
Screening Cc1cccc(C)c1NC(=O)c1ccc2c(c1)N(Cc1cccc(Cl)c1)C(=O)c1ccccc1S2=O (centres undefined) returned HTT prom inh -19% and PMP22 txn prim -7%.
For CC1CCCCN1S(=O)(=O)c1ccc2[nH]c(=O)cc(C(=O)NCCc3ccc(Cl)cc3)c2c1 (centres undefined) the results were HTT prom inh inconclusive and PMP22 txn prim -22%.
Screening O=C(Nc1ncc(Cc2ccc(F)cc2)s1)c1ccc2c(c1)CC(c1ccccc1)OC2=O (centres undefined) returned HTT prom inh -11% and PMP22 txn prim inconclusive.
For COc1ccc2c(c1)CCc1c(C(=O)Nc3cc(OC)c(Cl)cc3OC)noc1-2 the results were HTT prom inh -8% and PMP22 txn prim 3%.
O=C(O)c1ccc(O)c2ncc(N3CCOCC3)cc12 was read as HTT prom inh -14%.
CCC(=O)OC1=C(C(C)=O)N(Cc2ccccc2)S(=O)(=O)c2ccccc21 was read as HTT prom inh -4% and PMP22 txn prim -7%.
For COc1ccc(CNC(=O)c2oc3c(c2C)-c2nn(Cc4ccc(Cl)cc4)cc2CC3)cc1 the results were HTT prom inh inconclusive and PMP22 txn prim inconclusive.
Screening Cc1ccc(C)c(NC(=O)CSc2nccn2-c2cccc(C)c2C)c1 returned HTT prom inh -26% and PMP22 txn prim inconclusive.
Screening Cc1ccc2nc(NC(=O)c3ccc(S(=O)(=O)N4CCCc5ccccc54)cc3)sc2c1 returned HTT prom inh inconclusive and PMP22 txn prim inconclusive.
For CCC(C(=O)Nc1cc(-c2cn3cccnc3n2)ccc1C)c1ccccc1 (centres undefined) the results were HTT prom inh 8% and PMP22 txn prim inconclusive.
COc1cccc(-c2ccc3c(N)c(C(=O)c4ccc(F)cc4)sc3n2)c1 was read as HTT prom inh 18% and PMP22 txn prim -53%.
Screening CCOC(=O)c1cccnc1 returned HTT prom inh 12%.
`CN(C)c1cccc(C(=O)Nc2nc3ccc(S(=O)(=O)N4CCCC4)cc3s2)c1` gave HTT prom inh -32% and PMP22 txn prim -4%.
CCN(CC)CCOC(=O)c1ccc(NC(=O)Cn2ncc3c([nH]c4ccc(C)cc43)c2=O)cc1 was read as HTT prom inh 2% and PMP22 txn prim 10µM*.
`CCOC(=O)N1CCN(Cc2nc3cc(NC(=O)CC(C)C)ccc3n2C(C)C)CC1` gave HTT prom inh inconclusive and PMP22 txn prim inconclusive.
CCOC(=O)c1cnc2c(ccc3ccccc32)c1Nc1ccc(Cl)cc1 was read as HTT prom inh -18%[11.5 µM] and PMP22 txn prim -7%.
COc1ccc(NC(=O)C2CCN(c3nc4ccccc4nc3C(F)(F)F)CC2)cc1 was read as HTT prom inh -2% and PMP22 txn prim -9%.
For CCOC(=O)c1ccc(NC(=O)CC(=O)Nc2ccc3nc4n(c(=O)c3c2)CCCCC4)cc1 the results were HTT prom inh -6% and PMP22 txn prim inconclusive.
`OCCN1CCN(C(c2ccccc2Cl)c2sc3nc(-c4ccco4)nn3c2O)CC1` (centres undefined) gave HTT prom inh -14% and PMP22 txn prim 3%.
Screening CC(=O)Nc1ccc(NC(=O)CCc2nc3cccnc3n2Cc2cccs2)cc1 returned HTT prom inh -17% and PMP22 txn prim -4%.
Screening OC[C@H]1O[C@@H](Oc2cc(O)cc(C=Cc3ccc(O)cc3)c2)[C@H](O)[C@@H](O)[C@H]1O returned HTT prom inh 6%.
`CCOc1ccc(NC(=O)N2CC3CCCN3c3ccccc32)cc1` (centres undefined) gave HTT prom inh inconclusive and PMP22 txn prim 9%.
For C[C@H](CCC(=O)O)[C@H]1CC[C@H]2[C@@H]3C(=O)C[C@@H]4CC(=O)CC[C@]4(C)[C@H]3CC(=O)[C@]12C the results were HTT prom inh 6%.
For Cc1ccc(CNC(=O)Cn2cccc2C(=O)c2ccccc2C)cc1 the results were HTT prom inh 20% and PMP22 txn prim 15%.
`CSc1ccc(CCNC(=O)c2sc3ncccc3c2-n2cccc2)cc1` gave HTT prom inh inconclusive and PMP22 txn prim inconclusive.
For COc1cccc(Nc2nc3ccccc3c3nncn23)c1 the results were HTT prom inh -15% and PMP22 txn prim inconclusive.
COC(=O)CN1C(=O)C(C)(C)c2cc(S(=O)(=O)Nc3ccc(C(C)C)cc3)ccc21 was read as HTT prom inh inconclusive and PMP22 txn prim -10%.
For Cc1ccc(NC(=O)CN2C(=O)c3ccccc3Sc3ncccc32)c(C)c1 the results were HTT prom inh -25% and PMP22 txn prim -2%.
For CCOC(=O)c1ccc(NC(=O)C2Cc3ccccc3CN2S(=O)(=O)c2ccc(Cl)cc2)cc1 (centres undefined) the results were HTT prom inh inconclusive and PMP22 txn prim -25%.
`CCOC(=O)c1c(NC(=O)COc2cccc(C)c2C)sc2c1CCCCC2` gave HTT prom inh inconclusive and PMP22 txn prim -3%.

In the list so far, these contain an aryl thioether with sulfur outside any ring:
For COc1ccc(C2Oc3nc(SC)nnc3-c3ccccc3N2C(C)=O)cc1 (centres undefined) the results were HTT prom inh -27% and PMP22 txn prim inconclusive.
For Cc1ccc(Cn2ccnc2SCC(=O)Nc2ccccc2C(F)(F)F)cc1 the results were HTT prom inh -4% and PMP22 txn prim -1%.
Screening O=C(Nc1ccccc1)Nc1nnc(SCC(=O)N2CCCCC2)s1 returned HTT prom inh -21% and PMP22 txn prim -8%.
`CCC(Sc1nc2cc3c(cc2c(=O)n1CCCC(=O)NCc1ccc(OC)cc1)OCO3)C(=O)NCCCOC` (centres undefined) gave HTT prom inh -4% and PMP22 txn prim 9%.
Screening Cc1ccc(C)c(NC(=O)CSc2nccn2-c2cccc(C)c2C)c1 returned HTT prom inh -26% and PMP22 txn prim inconclusive.
`CSc1ccc(CCNC(=O)c2sc3ncccc3c2-n2cccc2)cc1` gave HTT prom inh inconclusive and PMP22 txn prim inconclusive.
